Compound activity deposited in PubChem by National Center for Advancing Translational Sciences (NCATS).
MARV entry inh: blocks Marburg virus binding or cell entry. Marburg virus pseudotype entry/binding inhibition, cell-based; control for the full effect not named in the record; many of its hits are not listed in these tables. Potency, µM (titrated, usually from 49.2 µM), for inactives: at the top dose activity change, negative = inhibition, actives largely listed as inhibitors. 18,000 compounds, 6.5% hits. AID 720532; active means well fitted inhibition curve with a large enough effect; inconclusive means small, poorly fitted or top-dose-only effect; inactive means no such curve, though single readings can be large or run the other way; tested in HEK293 cells; note: luciferase read-out
LASV entry inh: Lassa virus entry inhibition. 18,000 compounds, 4.1% hits. Potency, µM (top dose mostly 49.2 µM), for the others: top-dose activity change, negative = inhibition, hits mostly inhibitors. AID 720533. Lassa virus pseudotyped entry inhibition, cell-based qHTS; control for the full effect not named in the record; many of its hits are not listed in these tables; active = well fitted inhibition curve with a large enough effect; inconclusive = small, poorly fitted or top-dose-only effect; inactive = no such curve, though single readings can be large or run the other way; tested in HEK293 cells; note: luciferase read-out
An asterisk follows results filed as active; ? = inconclusive; & = joins results of further samples; [ ] = another dose, or the depositor's remark. % is set by controls: 0 for no effect and ±100 for the full control effect; potency is the fitted concentration of half-maximal effect. Some of the compounds tested, so the mix of outcomes need not match the whole.

Under each structure – MARV entry inh | LASV entry inh
COC1[C@@H](O[C@@H]2O[C@H](C)[C@@H](O[C@H]3C[C@@](C)(O)[C@H](OC(=O)CC(C)C)[C@H](C)O3)[C@H](N(C)C)[C@H]2O)[C@@H](CC=O)C[C@@H](C)[C@@H](O)/C=C/C=C/C[C@@H](C)OC(=O)C[C@H]1OC(C)=O (stereo not given in full)
    7%[17.8 µM] | 9%[17.8 µM]
c1ccc2c(Nc3ccncc3)nc(-c3ccc4c(c3)OCO4)nc2c1
    ? | ?
CN(C)C(=O)CCSC(SCCC(=O)O)c1cccc(/C=C/c2ccc3ccc(Cl)cc3n2)c1 (stereo not given)
    15% | -19%
Cc1oc(-c2ccccc2NC(=O)c2ccccn2)nc1CNC(=O)c1cccc(C#CC(C)(C)O)c1
    -3% | -7%
O=C1[C@@H]2CSCCS(=O)(=O)N2C(=O)N1C1CCCCC1
    -6% | 12%
Cn1ccc2c(-c3ccccc3Cl)cc3c(c21)C1CCC3C1 (stereo not given)
    -20% | 17%
Nc1ccccc1S(N)(=O)=O
    -5%[17.8 µM] | -2%[17.8 µM]
O=C(NC(Cc1cc(=O)[nH]c2ccccc12)C(=O)O)c1ccc(Cl)cc1 (stereo not given)
    -14% | -14%
C=CCN=C1NC(c2cccc(C(F)(F)F)c2)C(C(=O)OC)=C(C)N1CC (stereo not given)
    12%[8.59 µM] | -27%[8.59 µM]
CC(C)(C)OC(=O)NCCCC1=CC2=CC(=O)C(C)(OC(=O)c3cccs3)C(=O)C2=CO1 (stereo not given)
    7% | 2%
C[Si](C)(C/C=C/CC[C@H](O)C1=CCCCC1=O)c1ccccc1
    -9% | -11%
C=CCN1c2ccccc2[C@]23CCC(=O)N(CC(=O)OC)C2=NC(C(=O)OC)=C(C(=O)OC)[C@H]13
    18%[8.59 µM] | 13%[8.59 µM]
C=CCOC(=O)C(C(C)=O)[C@@H](NC(=O)OC)c1cccc(C(F)(F)F)c1 (stereo not given in full)
    4%[8.59 µM] | 1%[8.59 µM]
O=C1OCCC=C1C(O)CCc1ccccc1 (stereo not given)
    22%[8.59 µM] | -11%[8.59 µM]
CC=CCCN1C=C(C(=O)OCC)C(c2ccccc2)NC1=O (stereo not given)
    41%[activator][8.59 µM] | -2%[8.59 µM]
CC(=O)OC1CC2C(C)(C)C(=O)CC[C@]2(C)C2CC[C@@]3(C)C(c4ccoc4)OC(=O)C4OC43[C@]12C (stereo not given in full)
    ? | -2%
O=C1C(Nc2ccccc2)=CC(=O)c2ncccc21
    5.6µM* | 11µM*
CSCC[C@H](NC(=O)[C@H](CC(C)C)NC(=O)CNC(=O)[C@H](Cc1ccccc1)NC(=O)[C@H](Cc1ccccc1)NC(=O)[C@H](CCC(N)=O)NC(=O)[C@H](CCC(N)=O)NC(=O)[C@@H]1CCCN1C(=O)[C@H](CCCCN)NC(=O)[C@@H]1CCCN1C(=O)[C@H](CCCN=C(N)N)NC(=O)CCCCC1SCC2NC(=O)NC21)C(N)=O (stereo not given in full)
    1% | 3%
CCC(C=C[C@@H]1OC(=O)C=C[C@H]1C)=C[C@H](C)CC=CC(C)=C[C@@H](C)C(=O)[C@@H](C)[C@H](O)[C@@H](C)CC(C)=CC(=O)O
    2%[1.73 µM] | -5%[1.73 µM]
CNC(C)Cc1ccccc1 (stereo not given)
    4%[107 µM] | -2%[107 µM]
CCN1C(=NCCc2cccnc2)NC(CCc2ccccc2)C(C(=O)OC)=C1C (stereo not given)
    38%[8.59 µM] | 29%[8.59 µM]
CN1CCN(c2ccc(Nc3c4ccccc4nc4ccccc34)cc2)CC1
    2µM* | ?
CN1C2CCC1CC(OC(=O)C1CCC(C(=O)OC3CC4CCC(C3)N4C)(c3ccccc3)c3ccccc31)C2 (stereo not given)
    6.3µM* | ?
Oc1ccc(Cl)cc1Cc1cc(Cl)ccc1O
    ? | ?
CC(=O)N[C@@H](CSC(=O)[C@]1([C@@H](O)C(C)C)NC(=O)[C@H](C)[C@@H]1O)C(=O)O
    ? | 3.5µM*
O=C(c1cnsn1)N1CCOc2ccc(CN3CCOCC3)cc2C1
    -11% | 0%
CCCCC/C=C\C/C=C\C/C=C\C/C=C\CCCC(=O)Nc1ccc(O)cc1
    ? | 32µM*
N#Cc1cc2c(OCC(O)CN3CCN(C(c4ccccc4)c4ccccc4)CC3)cccc2[nH]1 (stereo not given)
    8.9µM* | 16µM*
O=C(NNCNNC(=O)c1ccncc1)c1ccncc1
    -2% | -22%
C/C(=C\c1ccco1)CN1CCOc2ccc(CN3CCC(Oc4cccnc4)CC3)cc2C1
    ? | 2%

Reformatted: 6 of the compounds above
Structure	MARV entry inh	LASV entry inh
Nc1ccccc1S(N)(=O)=O	-5%[17.8 µM]	-2%[17.8 µM]
O=C(NC(Cc1cc(=O)[nH]c2ccccc12)C(=O)O)c1ccc(Cl)cc1 (stereo not given)	-14%	-14%
C=CCN=C1NC(c2cccc(C(F)(F)F)c2)C(C(=O)OC)=C(C)N1CC (stereo not given)	12%[8.59 µM]	-27%[8.59 µM]
CC(C)(C)OC(=O)NCCCC1=CC2=CC(=O)C(C)(OC(=O)c3cccs3)C(=O)C2=CO1 (stereo not given)	7%	2%
C[Si](C)(C/C=C/CC[C@H](O)C1=CCCCC1=O)c1ccccc1	-9%	-11%
C=CCN1c2ccccc2[C@]23CCC(=O)N(CC(=O)OC)C2=NC(C(=O)OC)=C(C(=O)OC)[C@H]13	18%[8.59 µM]	13%[8.59 µM]

Continuation.
Under each structure – MARV entry inh | LASV entry inh
COCCN1CCN(C(=O)c2cnn(-c3nccc(-c4ccco4)n3)c2C(C)C)CC1
    -19% | -13%
CCN(c1ccccc1)c1cc(NC)[n+](C)c(C)n1
    -3% | -18%
O=C1c2c(O)cc(O)cc2OC(c2ccc(O)c(O)c2)C1O (stereo not given)
    15% | -8%
CC(O)C#C[Si](C)(C)c1ccccc1 (stereo not given)
    5% | 3%
Nc1ncnc2c1ncn2C1CCCO1 (stereo not given)
    2%&0% | -10%&-11%
CCCC(=O)O[C@@H]1[C@@H](C)[C@@]2(O)[C@@H](C=C(CO)C[C@]3(O)C(=O)C(C)=C[C@@H]23)[C@@H]2C(C)(C)[C@]12OC(=O)CCC
    ? | -6%
Cc1cccc(CNC(=O)c2c3n(c(C)cc2=O)-c2ccccc2SC(c2ccsc2)C3)n1 (stereo not given)
    -7% | -17%
CC(=O)OCC1=C(C(=O)O)N2C(=O)C(NC(=O)CCCC(N)C(=O)O)C2SC1 (stereo not given)
    6% | -10%
Cc1oc(C)c(C(=O)Nc2ccccc2)c1C
    3% | -14%
COC(=O)C1CCN(Cc2ccc3c(c2)CN(C(=O)c2ccc4nc(C)c(C)nc4c2)CCO3)CC1
    6% | -3%
CCN(C(C)=O)c1cccc(-c2ccnc3c(C#N)cnn23)c1
    2% | -5%
CCCCN1CC(COc2ccccc2)Oc2cccc(F)c2S1(=O)=O (stereo not given)
    21% | 23%
O=C1OCCC1N(C(=O)C1CC1)c1cccc(Cl)c1 (stereo not given)
    15% | -3%
CC(C)[C@H]1COCCS(=O)(=O)N1Cc1ccccc1-c1ccccc1
    ? | -18%
C=CCCC1CN(CCCC)S(=O)(=O)c2c(F)cccc2O1 (stereo not given)
    21% | 55%[activator]
Cn1c(=O)[nH]c2ncn(C)c2c1=O
    16%&-8% | -10%&6%
N[C@H](CCC(=O)N[C@H](CSN=O)C(=O)NCC(=O)O)C(=O)O
    -1% | 0%
Cc1cc(C(=O)NCc2nc(-c3cccc(NC(=O)c4cc(C)oc4C)c3)oc2C)nc(C)n1
    ? | ?
CC1=C(C(=O)O)N2C(=O)C(NC(=O)C(N)C3=CCC=CC3)C2SC1 (stereo not given)
    14% | 9%
CC1CC[C@@]2(OC1)OC1CC3C4CC[C@H]5CC(O)CC[C@@]5(C)C4CC[C@]3(C)C1C2C (stereo not given in full)
    -3% | -8%
CC(=O)O[C@]1(C)CC[C@]23CC1C(C)(C)C2CC[C@@H]3C (stereo not given in full)
    8% | 1%
COc1ccc(CN2CCOc3ccc(CN4CCCCC4CO)cc3C2)c(OC)c1 (stereo not given)
    ? | -24%
Cc1cc(O)cc(O)c1C(=O)OC1(C)C(=O)C=C2C=C(/C=C/CO)OC=C2C1=O (stereo not given)
    4% | -3%
Cc1ccccc1C(=O)NC(C)c1nnc2n1CCN(Cc1ccc(F)cc1)CC2 (stereo not given)
    -1% | 5%
Cc1occc1C(=O)Nc1cccc(-c2nc(CNC(=O)c3ccc(N4CCCCC4)cc3)c(C)o2)c1
    -26% | ?
O=C(O)CCCC[C@H]1SC[C@H]2NC(=O)N[C@@H]21
    16%[17.8 µM] | 0%[17.8 µM]
c1ccc(-c2nn[nH]n2)c(Nc2cccc3c2CCCC3)c1
    8% | -13%
COC(=O)N[C@@H](C=Cc1ccccc1)C(C(=O)OC)=C(C)NCc1ccccc1
    -22%[8.59 µM] | -12%[8.59 µM]
O=c1c(-c2ccccc2)coc2cc(O)cc(O)c12
    60%[activator] | 53%[activator]
COc1cc(C(CCN2CCOCC2)c2c(OC)cc(OC)c3ccc(=O)oc23)cc(OC)c1OC (stereo not given)
    -12% | -23%

Pulled by compound from the list above, 5 records:
Under each structure – MARV entry inh | LASV entry inh
COC(=O)N[C@@H](C=Cc1ccccc1)C(C(=O)OC)=C(C)NCc1ccccc1
    -22%[8.59 µM] | -12%[8.59 µM]
c1ccc(-c2nn[nH]n2)c(Nc2cccc3c2CCCC3)c1
    8% | -13%
Nc1ncnc2c1ncn2C1CCCO1 (stereo not given)
    2%&0% | -10%&-11%
CC1CC[C@@]2(OC1)OC1CC3C4CC[C@H]5CC(O)CC[C@@]5(C)C4CC[C@]3(C)C1C2C (stereo not given in full)
    -3% | -8%
CC(O)C#C[Si](C)(C)c1ccccc1 (stereo not given)
    5% | 3%

(cont.)
Under each structure – MARV entry inh | LASV entry inh
Cc1cccc(COC[C@H](Cc2ccccc2)N2CCN(C(=O)c3cccc(C)c3)CCC2=O)c1
    ? | ?
COC(=O)CCC(=O)OC1(C)C(=O)C=C2C=C(c3ccsc3)OC=C2C1=O (stereo not given)
    -7% | 6%
NC(C(=O)O)c1cc(O)c(Cl)c(O)c1 (stereo not given)
    10% | 12%
C=C1c2cccc(C(F)(F)F)c2O[C@H](C(=O)OCC)C1OC (mixture of isomers)
    23% | -2%
COc1ccc2c(c1)O[C@@H](c1cccc(C(F)(F)F)c1)[C@H](OC(=O)NS(=O)(=O)c1ccc(F)cc1)C2=O
    -10% | -3%
CC(C)(C)OC(=O)N1CCC(C(=O)Nc2ccc(C(=O)N3CCCCC3)cc2)CC1
    11% | -15%
COc1ccc(C(=O)N(Cc2cc3cccc(C)c3nc2N(C)C)CC2CCCO2)cc1 (stereo not given)
    -15% | -11%
CCN(CC)CCC(=O)N1c2ccccc2Sc2ccc(Cl)cc21
    ? | ?
C=CCN(CC=C)Cc1cc(=O)oc2cc(OC)ccc12
    4% | -20%
CC[C@H](C)[C@@H](NC(=O)O[C@H]1C(=O)c2cc(OC)ccc2O[C@@H]1c1ccc(OC)c(Br)c1)C(=O)OC
    17% | 1%
O=C(O)CCCO
    0%[107 µM] | 2%[107 µM]
CC1CCC(C(C)(C)O)CC2=C1CCC2C (stereo not given)
    8% | -3%
CN1CCC2=C[C@@H](O)[C@@H]3OC(=O)c4cc5c(cc4C3C21)OCO5 (stereo not given in full)
    -19% | -3%
COc1ccccc1N1CCN(CCN2C(=O)c3ccccc3C(C)(C)C2=O)CC1
    -11%&-18% | -4%&-9%
Cc1ncc2c(c1CNC(=O)/C=C/c1cccs1)CCN(C(=O)c1noc3c1CCCC3)C2
    2% | -8%
CN(Cc1ccco1)c1ccnc(-c2cccc(NS(C)(=O)=O)c2)n1
    24% | -5%
Nc1nc(=O)n([C@@H]2CS[C@H](CO)O2)cc1F
    12% | -20%
O=S(=O)(NCCc1ccc(F)cc1)c1cc(C(F)(F)F)ccc1Br
    8% | 10%
CCCCCCCCCCCCCC(=O)OCC(COP(=O)([O-])OCC[N+](C)(C)C)OC(=O)CCCCCCCCCCCCC (stereo not given)
    -9% | -11%
Cc1ccc(F)cc1CNC(=O)c1sc2ncnc(NCC3CCCO3)c2c1C (stereo not given)
    -23% | -11%
Cc1cc2c(c(-c3ccc4nc(C)ccc4c3)c1)OC(CNC(=O)Cc1ccn(C)c1)C2 (stereo not given)
    2% | -13%
Cc1c(C(=O)NCCc2ccccn2)cnn1-c1nccc(-c2cccs2)n1
    9% | 2%
COc1ccc2c(c1)O[C@@H](c1cccc(C(F)(F)F)c1)[C@H](OC(=O)NCCOc1ccccc1)C2=O
    -10% | 6%
O=C1OCCN1C(=O)[C@H]1[C@H](c2ccc(Cl)cc2)C(c2cccc(Cl)c2)=NN1c1ccccc1
    -23% | -22%
CC(C)(Sc1ccc(CCN(CCCCC2CCCCC2)C(=O)NC2CCCCC2)cc1)C(=O)O
    14%&1% | -8%&-15%
CCCCCC(=O)N1C[C@H](O)[C@@H](n2cc(-c3ccc(F)cc3)nn2)C[C@H]1c1ccc(C)cc1
    ? | -30%
CC(C)C1COc2cc3oc(=O)ccc3cc2O1 (stereo not given)
    46%[activator] | 31%[activator]
